Bioassay records (PubChem)
MgrA DNA FP – S. aureus MgrA-DNA binding modulation; fluorescence polarization; inhibition, %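 (about 10 µg/mL by stock and volumes)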; actives 0.13% (n = 84,000); AID 602314;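 active = above 50% in either of two replicates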;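 also: 0% = protein plus DNA without compound and 100% = DNA alone without protein; higher means less MgrA bound to DNA so lower polarization; one replicate is shown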
Sa helicase inh – blocks Staphylococcus aureus DNA helicase; inhibition, %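 (tested at about 80 µM)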; actives 0.05% (n = 120,000); purified S. aureus helicase, fluorescence unwinding assay; about half of the hits fall short of the stated cut;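 active = both duplicates at 50% or more, or one of them with a favoured structure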;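 also: 0% = mean of negative control wells and 100% = mean of positive control wells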
Active calls of the source: *; x = no result given. This is a subset, so the mix of outcomes need not match the whole.

SMILES	MgrA DNA FP	Sa helicase inh
Cc1ccc(-c2csc(-c3ccc(C(F)(F)F)cc3)n2)cc1	-4.9	x
O=C1NC(=Nc2ccccc2Cl)S/C1=C\c1cccc([N+](=O)[O-])c1O	12	x
CCn1c(=O)c(C(=O)Nc2nccs2)c(O)c2ccccc21	1.0	-4
Cc1noc(COc2ccccc2)c1C(=O)O	-0.9	x
Cc1ccc(CNS(=O)(=O)c2cn(C)c(=O)n(C)c2=O)cc1	x	-4
O=c1[nH]c(=O)c2ccc(Cl)cc2[nH]1	-1.2	x
COc1ccc2cc3cc(C(=O)NCc4ccc(F)cc4)sc3nc2c1	x	4
Cn1[nH]c2nc3[nH]n(C)c(=O)c3c(-c3ccccc3)c2c1=O	1.1	11
CC(=O)Nc1ccc(C(=O)OC2CCCCC2=O)cc1 (stereo not drawn)	x	-11
C=C1C2(C(=O)O)CCC(C2)C1(C)C (stereo not drawn)	x	-17
O=C(NCCCCCCOC1=NS(=O)(=O)c2ccccc21)C(=O)Nc1ccccc1	-0.2	x
O=C(Nc1cccc(F)c1C(=O)NCCc1ccncc1)c1cccc(C(F)(F)F)c1	-0.4	x
COCCCNC(=O)CC#N	-2.5	x
Nc1ccc(C(O)C(O)CO)cc1 (stereo not drawn)	-3.1	10
O=C1NC(=O)C2(CCCC2)N1	x	-9
CC(C)CC(=O)NC(c1ccccc1)c1c(O)ccc2ccccc12 (stereo not drawn)	-3.1	-3
CCOC(=O)c1c(C)[nH]c(C)c1C(=O)CO/N=C/c1ccco1	x	2
COc1ccc2cc3cc(C(=O)NCC4CCN(Cc5cccc(C)c5)CC4)sc3nc2c1	-3.2	17
Cc1nc2ccc(NC(=O)c3ccc(N4C(=O)CCC4=O)cc3)cc2s1	x	21
Cc1cc(-c2nnnn2-c2ccc(F)cc2)no1	0.2	x
COc1ccccc1Nc1nnc(SCC(=O)N(C)Cc2cccs2)s1	x	-4
Clc1ccc(CN2CCN(c3ccccc3)CC2)cn1	-2.0	x
NC(=O)c1ccccc1NC(=O)C(F)(F)F	x	-6
Cc1cccn2c(=O)c3cc(C(=O)NCCN4CCOCC4)c(=N)n(C(C)C)c3nc12	0.3	19
CCCc1c(C(=O)OCC)cnn1-c1c(Cl)cc(Cl)cc1Cl	-0.5	x
(continued)
SMILES	MgrA DNA FP	Sa helicase inh
COc1ccc(NC(=O)CN(CC(=O)Nc2ccc(OC)cc2)C(C)(C)CO)cc1	x	2
CC(O)CNc1nc2ccccc2n1CC(=O)NCC(F)(F)F (stereo not drawn)	x	0
CCOc1c(Br)cc(/C=C2N=C(/C=C/c3ccccc3)OC/2=O)cc1OC	-1.8	x
Cc1nn(Cc2ccc(C(=O)O)o2)c(C)c1Br	2.0	x
Cc1cc(NC(=O)COC(=O)CSc2ccccc2)no1	x	0
CC(OC(=O)CN1C(=O)c2ccccc2C1=O)C(=O)Nc1cccc(C#N)c1 (stereo not drawn)	x	-13
CCOC(=O)C1=C(C(F)(F)F)Nc2ncnn2C1c1ccc(OC)cc1 (stereo not drawn)	x	-9
Cc1ccc2oc(=O)c3cnn(CC(=O)N(C(C)C)C4CCCCC4)c3c2c1	x	5
Cc1ccc(C)n1-c1ccc(C(=O)OC2CCOC2=O)cc1 (stereo not drawn)	x	13
N/C(=N\O)C1CSc2ccccc2C1=O (stereo not drawn)	1.7	x
O=C1O/C(=C\c2ccc(Cl)cc2Cl)c2ccccc21	-0.8	x
N#CCCn1c(SCC(=O)NCCSc2ccc(Cl)cc2)nc2ccccc21	x	-1
CC(=O)N1CCN(C2CCN(CCc3ccccc3)CC2)CC1	-1.1	5
CC(C)COC(=O)Nc1ccc2c(c1)OCO2	-2.0	3
N=c1ccn2c(n1)O[C@@H]1C2O[C@H](CO)[C@H]1O (stereo partly drawn)	4.8	x
Cc1c(C)n(C(=O)CSc2ccccn2)c2ccccc12	x	7
N=c1scc(-c2ccc(Cl)cc2)n1-c1ccc(Cl)c(Cl)c1	-2.3	x
CO/C(N)=N/C(=S)Nc1cccc(C(F)(F)F)c1	x	-25
CCOC(=O)c1oc2ccc(Br)cc2c1NC(C)=O	x	-1
S=C(Nc1ccccc1)Nc1nc2ccccc2n1CCOc1ccc(Cl)cc1	5.8	-9
COc1ccc(NC(=O)CSc2nnc3n2CCCCC3)cc1	x	-21
N#Cc1cccc(NC(=O)C2SC(=Nc3ccccc3)C(C(=O)N3CCOCC3)=C2N)c1 (stereo not drawn)	x	7
O=C(c1cncc(Br)c1)N1CC=C(c2ccccc2)CC1	x	-14
CSc1ccc(CCNC(=O)c2cccc3c2C(=O)N(CC2CCCO2)C3)cc1 (stereo not drawn)	0.0	6
Cc1cc(C2=NN(C)C(=NCc3ccccc3)SC2)c(C)n1Cc1ccco1	x	-4

Part of the list above, with each value named.
CC(O)CNc1nc2ccccc2n1CC(=O)NCC(F)(F)F (stereo not drawn)
- MgrA DNA FP: x
- Sa helicase inh: 0

CCOC(=O)c1oc2ccc(Br)cc2c1NC(C)=O
- MgrA DNA FP: x
- Sa helicase inh: -1

O=C(c1cncc(Br)c1)N1CC=C(c2ccccc2)CC1
- MgrA DNA FP: x
- Sa helicase inh: -14

CC(OC(=O)CN1C(=O)c2ccccc2C1=O)C(=O)Nc1cccc(C#N)c1 (stereo not drawn)
- MgrA DNA FP: x
- Sa helicase inh: -13

Following part
SMILES	MgrA DNA FP	Sa helicase inh
CCc1sc2ncnc(N(C)C)c2c1-c1ccccc1	x	10
Cc1ccc(-n2c(SCc3nnc4n3CCC4)nnc2-c2ccccc2)cc1	x	10
Cc1ccc(/C(C#N)=C\c2cc(C)n(C)c2C)cc1	3.2	3
Cc1cc(Nc2ccccc2)n(CCOC(=O)COc2ccccc2)n1	x	-1
O=C(COc1ccccc1)N1CCN(c2ccccc2F)CC1	x	-14
O=C(Cn1nnc2ccccc2c1=O)N1N=C(c2cccs2)CC1c1cccs1 (stereo not drawn)	x	-1
OC(CN1CCN(c2cccnc2)CC1)Cn1nnnc1-c1ccccc1 (stereo not drawn)	1.9	6
COCC(C)N=C1NN=C(c2ccc(O)cc2O)CS1 (stereo not drawn)	x	-5
COc1ccc(Cl)cc1NC(=O)c1cnc2scc(C)n2c1=O	x	14
CN(C(=O)c1cc2c(=O)[nH]c3ccccc3c2s1)C1CCCCC1	x	9
O=C(c1cc2ccccc2o1)N(Cc1c(F)cccc1Cl)C1CC1	x	15
Cc1nn(C)c(C)c1NC(=O)CSc1nccc(-c2ccc(Cl)cc2)n1	-6.4	9
COc1ccc(Cn2c(O)c(N=O)c3ccccc32)cc1	x	-11
O=C(CSc1cn(Cc2ccccc2)c2ccccc12)N1CCOCC1	x	-7
O=C(NC(NC(=O)c1ccco1)c1ccc(Br)cc1)c1ccco1	-0.2	1
CN(C)c1nc(Nc2ccccc2)nc(N(C)C)n1	-1.4	-2
CNC(=O)c1cc(Br)cc2c1OCC2	0.0	x
Cn1cc(Br)c(-c2cccc(N)c2)n1	0.2	x
O=C(COc1ccc(Cl)cc1Cl)Nc1ccc2c(c1)OCCO2	3.5	x
CC(=O)N1CCN(c2ccc(C(F)(F)F)cc2[N+](=O)[O-])CC1	-1.4	x
O=C(O)CN1CCN(Cc2ccc(F)cc2Cl)C1=O	x	-10
Cc1c(/C=C/C(=O)Nc2nccs2)sc2ccccc12	-1.7	x
Cc1cccc(OCCNC(=O)c2cccnc2)c1	-6.9	13
O=C(NC1CCN(Cc2ccccc2)CC1)C1CCCN(S(=O)(=O)c2cccc3nonc23)C1 (stereo not drawn)	x	3
CCOC(=O)c1cccc(NC(=O)CN(c2ccc(C)cc2)S(=O)(=O)c2c(C)n[nH]c2C)c1	x	9
Next section
SMILES	MgrA DNA FP	Sa helicase inh
Cc1[nH]nc2c1C1C(C2)C1(C)C (stereo not drawn)	0.5	24
CCC(=O)Nc1nnc(-c2ccc3c(c2)CCCC3)o1	x	-4
NC(=O)c1cc(S(=O)(=O)Nc2cccc(F)c2)co1	x	5
O=C1NC(Cc2c[nH]c3ccccc23)C(=O)N1Cc1ccc(Cl)cc1 (stereo not drawn)	x	7
CCc1cccc(C)c1Nc1c(-c2ccsc2)nc2cnccn12	0.5	7
COC(=O)c1nnn(-c2nonc2N)c1CN1CCC(Cc2ccccc2)CC1	2.0	11
Cc1ccc(C)n1CCc1c[nH]c2ccccc12	-0.8	x
Cc1[nH]c2ccccc2c1SCc1nnc(SCc2ccc(Cl)cc2)n1C	-0.2	x
O=C(O)c1ccccc1N=Nc1c(O)c2ccccc2oc1=O	x	8
Cc1sc2nc(CN(C(=O)c3cccs3)C3CCCC3)[nH]c(=O)c2c1C	-1.3	9
Cc1cc2ccccc2n2c(SCC(=O)O)nnc12	1.8	11
CSc1nc2cc(C)nn2c(-c2ccccc2Cl)c1C#N	-1.2	x
CN(C)c1cccc(C(=O)OCC(=O)Nc2ccccc2Cl)c1	x	8
CC(=O)N1Cc2ccccc2CC1C(=O)Nc1ccc(F)cc1C (stereo not drawn)	x	-7
CNNCc1ccc(C(=O)NC(C)C)cc1	-0.8	x
N#Cc1ccc(OCC(=O)N2CCC(C(N)=O)CC2)cc1	-2.0	10
Cc1cccc(C(=O)N/C(=C/c2ccc(N(C)C)cc2)C(=O)O)c1	1.4	-7
COCCCn1c(O)c(C#N)c(C)cc1=O	-3.4	x
O=C(O)/C=C/C(=O)Nc1ccc(-c2nc3ccccc3o2)cc1	-0.9	11
CCC(C)NC(N)=S (stereo not drawn)	x	11
O=C(CSc1ncccn1)NC(=O)Nc1ccc2c(c1)OCCO2	x	-11
N#CC1=C(N=Cc2c(O)ccc3ccccc23)CCC1	x	-20
Cc1ccc(N2C(=O)C3C4C=CC(C4)C3C2=O)nc1 (stereo not drawn)	-0.4	x
CCc1cccc(CC)c1NC(=O)/C(C#N)=C/c1c(C)nn(-c2ccccc2)c1N1CCCC1	x	5
COc1ccc(Oc2ncccc2NC(=O)c2ccc(C)cc2)cc1	-0.7	x

Molecules from the list above with a CF3 group, in the order listed:
SMILES	MgrA DNA FP	Sa helicase inh
Cc1ccc(-c2csc(-c3ccc(C(F)(F)F)cc3)n2)cc1	-4.9	x
O=C(Nc1cccc(F)c1C(=O)NCCc1ccncc1)c1cccc(C(F)(F)F)c1	-0.4	x
NC(=O)c1ccccc1NC(=O)C(F)(F)F	x	-6
CC(O)CNc1nc2ccccc2n1CC(=O)NCC(F)(F)F (stereo not drawn)	x	0
CCOC(=O)C1=C(C(F)(F)F)Nc2ncnn2C1c1ccc(OC)cc1 (stereo not drawn)	x	-9
CO/C(N)=N/C(=S)Nc1cccc(C(F)(F)F)c1	x	-25
CC(=O)N1CCN(c2ccc(C(F)(F)F)cc2[N+](=O)[O-])CC1	-1.4	x

(further entries)
SMILES	MgrA DNA FP	Sa helicase inh
CCOC(=O)Cc1nnc(SCc2ccc(C#N)cc2)n1Cc1ccco1	x	-7
c1ccc(CNCC2COc3ccccc3O2)cc1 (stereo not drawn)	0.8	-8
Cc1ccc(NC(=O)c2c(-c3ccccc3Cl)noc2C)cc1F	1.0	x
NC(=O)c1c(NC(=O)c2cc3cc(Br)ccc3oc2=O)sc2c1CCCC2	0.9	x
O=C1NC(c2ccc(Cl)cc2)Nc2ccccc21 (stereo not drawn)	3.8	1
CC(C)CC1Nc2ccc(C(=O)N3CCCCC3)cc2NC1=O (stereo not drawn)	x	28
COc1cccc(Oc2ccccc2C(=O)O)c1	-1.8	x
CCC(C)N(CC)C(=O)C1C(=O)CC(C)(C)CC1=O (stereo not drawn)	0.4	-3
CNc1ccccc1-n1ccc(-c2ccccc2)n1	2.2	-6
O=C1CCC/C(=N\Nc2ccccc2)C1	x	-14
c1ccc2c(N3CCCCC3)nc(N3CCCCC3)nc2c1	4.4	2
Cc1nn(Cc2ccccc2)c(Cl)c1C(=O)OCc1nnc(-c2ccc(Cl)cc2)o1	x	13
Cc1c2cnn(-c3ccccc3)c(=O)c2c(C)n1CCCC(=O)NCC1CCCO1 (stereo not drawn)	x	0
c1ccc2c(c1)CCN(CCCNc1nc3ccccc3n3nnnc13)C2	3.1	-24
O=C(c1ccccc1)c1cc(Br)ccc1N=Cc1ccccc1O	x	-3
O=S(=O)(NC1CCN(Cc2c(F)cccc2Cl)CC1)c1ccc(C(F)(F)F)cc1	1.0	x
Clc1ccc(-c2csc(Nc3ccccc3)n2)cc1	-0.4	x
CC(Oc1ccc2ccccc2c1I)C(=O)O (stereo not drawn)	-1.9	x
OC(CN1CCCCC1)C(F)(F)F (stereo not drawn)	0.4	x
CCOC(NC(=O)Nc1ccc(Br)cc1)(C(F)(F)F)C(F)(F)F	-1.2	x
O=C(CCCN1C(=O)C(c2ccccc2)Oc2cccnc21)NC1CCN(Cc2ccccc2)CC1 (stereo not drawn)	x	-11
CC1CN(C(=O)Cn2cc(C(F)(F)F)cc(Cl)c2=O)CC(C)O1 (stereo not drawn)	x	3
Cc1cc(C(=O)OCC(=O)NCc2ccco2)c(C)n1-c1ccc(F)cc1	0.6	4
CC(=O)OC(C(=O)Nc1cccc(C)n1)c1ccccc1 (stereo not drawn)	1.2	5
COC(=O)/C=C1/N/C(=N/c2nc3ccccc3s2)NC1=O	0.0	1
Continuation.
SMILES	MgrA DNA FP	Sa helicase inh
COc1cccc(OC)c1C(=O)NCC#N	7.0	7
OC(CN1CCCCC1)CN1c2ccccc2Sc2ccccc21 (stereo not drawn)	2.8	3
C=CCN(CC=C)C(=O)C[n+]1cccc(C(N)=O)c1	1.2	5
CCOC(=O)C1C(=O)C=C(Nc2ccccc2F)CC1c1ccccc1 (stereo not drawn)	x	19
Nc1nc(N)nc(-c2ccncc2)n1	0.5	x
O=C(O)c1ccccc1SC1CC(=O)N(c2ccc(N3CCCCC3)cc2)C1=O (stereo not drawn)	3.5	6
COC(=O)C1Cc2ccccc2CN1C(=O)CSc1nc(C)cs1 (stereo not drawn)	x	-4
COc1ccc(CNC(=O)C(C)Sc2nc(N)cc(N)n2)cc1 (stereo not drawn)	x	-8
